Yeast UUG start: yeast start codon fidelity modulation. activity score, % at 18.7 µM. AID 602363. 350,000 tested, 0.13% active. S. cerevisiae UUG-firefly luciferase reporter, luminescence/redox ratio;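 active = replicate mean at a twofold rise or more, about +100% in these data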;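 also: firefly luciferase made from a UUG start codon reports start codon fidelity; reporter light over untreated wells divided by growth signal over untreated wells; some hits fall short of that in this replicate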
Starred values were filed as active, the others as inactive. The list is partial; count on the stated rates, not on these rows.

SMILES	Yeast UUG start
Cc1ccc(S(=O)(=O)Nc2ccc3c(c2)CC(=O)N([C@@H](C)CO)C[C@@H](C)[C@@H](CN(C)Cc2ccc4c(c2)OCO4)O3)cc1	16
CC(=O)N1[C@H](CO)[C@@H](c2ccc(C3=CCCC3)cc2)[C@H]1CNC(=O)CN(C)C	-3
O=C(Nc1ccccc1F)N1CCCCN2[C@H](CO)[C@@H](c3ccc(/C=C/c4ccccc4)cc3)[C@H]2C1	4
Cc1ccc(S(=O)(=O)Nc2ccc3c(c2)C(=O)N([C@@H](C)CO)C[C@H](C)[C@@H](CN(C)C(=O)NC2CCCCC2)O3)cc1	10
COc1ccc(S(=O)(=O)Nc2cccc3c2O[C@@H](CN(C)CC2CC2)[C@@H](C)CN([C@H](C)CO)C3=O)cc1	18
C[C@@H]1CN([C@@H](C)CO)C(=O)c2cc(NS(C)(=O)=O)ccc2O[C@H]1CN(C)Cc1ccc(C(=O)O)cc1	-10
COCC(=O)N(C[C@H]1N[C@H](CO)[C@H]1c1ccc(C2=CCCC2)cc1)C(C)C	-1
COc1cccc(C(=O)Nc2ccc3c(c2)OC[C@@H](C)N(C(=O)C2CCOCC2)C[C@@H](C)[C@H](OC)CN(C)C3=O)c1	12
Cc1cc(C(=O)Nc2cccc3c2O[C@@H](CN(C)C(=O)Nc2ccc4c(c2)OCO4)[C@H](C)CN([C@H](C)CO)C3=O)n(C)n1	-2
C[C@H]1CN([C@@H](C)CO)C(=O)Cc2cc(NC(=O)Nc3ccc4c(c3)OCO4)ccc2O[C@H]1CN(C)C	9
CO[C@H]1CN(C)C(=O)c2ccc(NC(=O)c3ccc4c(c3)OCO4)cc2OC[C@@H](C)N(CC2CC2)C[C@@H]1C	-5
COc1ccc(NC(=O)N(C)C[C@@H]2Oc3ccc(NS(C)(=O)=O)cc3C(=O)N([C@H](C)CO)C[C@H]2C)cc1	-38
Cc1cccc(CN(C)C[C@@H]2Oc3ncc(/C=C/c4ccccc4)cc3C(=O)N([C@H](C)CO)C[C@@H]2C)c1	20
CC(C)(O)C#Cc1ccc([C@H]2[C@H](CO)N3CCCCN(C(=O)c4cccnc4)C[C@@H]23)cc1	-12
CO[C@@H]1CN(C)C(=O)c2cc(NC(=O)C3CC3)ccc2OC[C@@H](C)N(Cc2cccc(F)c2)C[C@@H]1C	-16
Cc1ccc(S(=O)(=O)N(C)C[C@H]2Oc3ccc(NC(=O)CCN4CCOCC4)cc3CC(=O)N([C@H](C)CO)C[C@H]2C)cc1	0
Cc1cc(C(=O)Nc2cccc3c2O[C@H](CN(C)Cc2ccc(C(=O)O)cc2)[C@@H](C)CN([C@H](C)CO)C3=O)n(C)n1	4
CN(C)C(=O)c1cccc(-c2ccc([C@@H]3[C@@H](CO)N4CCCCN(S(C)(=O)=O)C[C@H]34)cc2)c1	-2
C[C@H]1CN([C@@H](C)CO)C(=O)CCCn2nncc2CO[C@@H]1CN(C)C(=O)Nc1ccccc1C(F)(F)F	33
CC(C)C#Cc1ccc([C@H]2[C@H]3CN(C(=O)c4ccc5c(c4)OCO5)CCCCN3[C@H]2CO)cc1	9
C[C@H](O)C#Cc1ccc([C@@H]2[C@@H](CO)N3CCCCN(CC4CC4)C[C@H]23)cc1	-2
COc1ccc(CN2[C@H](CO)[C@H]3c4ccccc4N(C(=O)CC(F)(F)F)C[C@H]32)cc1	-7
CC(C)NC(=O)Nc1ccc2c(c1)C(=O)N([C@@H](C)CO)C[C@H](C)[C@H](CN(C)Cc1ccncc1)O2	-5
COc1ccc(-c2ccc3c(c2)[C@@H]2[C@@H](CCN2C(=O)NC(C)C)[C@H](CO)N3C)cc1	28
CC(C)NC(=O)N1CCCCN2[C@H](CO)[C@H](c3ccc(C#Cc4ccccc4)cc3)[C@@H]2C1	4
Cc1cccc(-c2ccc([C@H]3[C@@H](CO)N4CCCCN(S(=O)(=O)c5cn(C)cn5)C[C@H]34)cc2)c1	12
CN1CCN(C(=O)C[C@@H]2C[C@H]3c4cc(NC(=O)CC5CC5)ccc4O[C@H]3[C@@H](CO)O2)CC1	-18
C[C@H](CO)N1C[C@H](C)[C@H](CN(C)S(C)(=O)=O)Oc2c(NC(=O)c3ccncc3)cccc2C1=O	-17
CCC(=O)N1C[C@H](C)[C@H](OC)CN(C)C(=O)c2cc(NC(=O)Nc3ccc(Cl)cc3)ccc2OC[C@H]1C	15
COc1ccc(S(=O)(=O)Nc2cccc3c2O[C@@H](CN(C)C)[C@H](C)CN([C@H](C)CO)C3=O)cc1	-6
CCCNC(=O)N1C[C@@H]2[C@H](c3ccccc31)[C@@H](CO)N2Cc1cc(F)ccc1F	-16
O=C(C[C@@H]1CC[C@@H]2[C@H](COC[C@@H](O)CN2Cc2ccc(Oc3ccccc3)cc2)O1)N1CCOCC1	-1
Cc1noc(C)c1NC(=O)Nc1cccc2c1O[C@H](CN(C)C)[C@H](C)CN([C@@H](C)CO)C2=O	2
Cc1cccc(-c2ccc([C@@H]3[C@H](CO)N4CCCCN(CCC(F)(F)F)C[C@@H]34)cc2)c1	-3
O=C(C1CCCC1)N1C[C@@H]2[C@H](c3ccccc31)[C@@H](CO)N2C(=O)c1ccccc1	6
COc1ccc(S(=O)(=O)N(C)C[C@H]2Oc3c(NC(=O)C4CCOCC4)cccc3C(=O)N([C@H](C)CO)C[C@@H]2C)cc1	6
CCC(=O)N1[C@@H]2Cn3c(cccc3=O)[C@H]1[C@@H](C(=O)NC1CCCCC1)[C@@H]2CO	-13
C[C@@H]1CN([C@@H](C)CO)C(=O)c2cccc(NC(=O)c3nc4ccccc4s3)c2O[C@@H]1CN(C)Cc1ccc(C(F)(F)F)cc1	12
CNC[C@H]1Oc2c(NS(=O)(=O)c3cccs3)cccc2C(=O)N([C@H](C)CO)C[C@H]1C	-7
O=C(C[C@@H]1CC[C@@H]2[C@H](COC[C@@H](O)CN2C(=O)Nc2cccc(F)c2)O1)NCc1ccccc1F	27

An excerpt from further up:
SMILES	Yeast UUG start
CCC(=O)N1[C@@H]2Cn3c(cccc3=O)[C@H]1[C@@H](C(=O)NC1CCCCC1)[C@@H]2CO	-13
C[C@@H]1CN([C@@H](C)CO)C(=O)c2cccc(NC(=O)c3nc4ccccc4s3)c2O[C@@H]1CN(C)Cc1ccc(C(F)(F)F)cc1	12
CNC[C@H]1Oc2c(NS(=O)(=O)c3cccs3)cccc2C(=O)N([C@H](C)CO)C[C@H]1C	-7
O=C(C[C@@H]1CC[C@@H]2[C@H](COC[C@@H](O)CN2C(=O)Nc2cccc(F)c2)O1)NCc1ccccc1F	27

Additional structures.
SMILES	Yeast UUG start
COc1ccccc1-c1ccc([C@@H]2[C@@H](CO)N3CCCCN(C(=O)c4cccnc4)C[C@@H]23)cc1	9
CC1C=NC(S(=O)(=O)N2CC[C@@H]3[C@H]2c2cc(-c4ccccc4F)ccc2N(C)[C@H]3CO)=N1 (stereo partly drawn)	-2
COCC(=O)N(C)C[C@H]1[C@H](c2ccccc2)[C@H](CO)N1C(=O)NC(C)C	1
CC(=O)N1CC[C@H]2[C@H](CO)Nc3ccc(-c4ccc(F)cc4)cc3[C@H]21	-3
CCS(=O)(=O)N1CCCCN2[C@H](CO)[C@@H](c3ccc(-c4ccccc4F)cc3)[C@H]2C1	-5
CC(C)(O)C#Cc1ccc([C@H]2[C@@H](CO)N3CCCCN(S(C)(=O)=O)C[C@@H]23)cc1	7
C[C@@H]1CN([C@H](C)CO)C(=O)CCCn2cc(nn2)CO[C@@H]1CN(C)C(=O)Nc1ccc(N2CCN(C)CC2)cc1	-10
CO[C@@H]1CN(C)C(=O)c2cc(NC(=O)c3cnccn3)ccc2OC[C@@H](C)N(CC2CC2)C[C@H]1C	-15
O=C(C[C@H]1CC[C@H]2[C@@H](COC[C@H](O)CN2Cc2ccccc2)O1)N[C@@H]1CCN(Cc2ccccc2)C1	-1
COCC(=O)N1C[C@H](C)[C@@H](OC)CN(C)C(=O)c2cc(NC(=O)Nc3ccccc3)ccc2OC[C@H]1C	6
COc1cccc(S(=O)(=O)N2CCCCN3[C@@H](CO)[C@@H](c4ccc(C#CCC(C)C)cc4)[C@@H]3C2)c1	26
CO[C@H]1CN(C)C(=O)c2cc(NC(=O)Nc3ccccc3F)ccc2OC[C@H](C)N(C)C[C@@H]1C	4
C[C@@H]1CN([C@@H](C)CO)C(=O)c2cccc(NS(=O)(=O)c3ccccc3)c2O[C@H]1CN(C)C(=O)NC1CCCCC1	6
CCC(=O)N1[C@@H]2Cn3c(ccc(C4=CCCCC4)c3=O)[C@H]1[C@@H](C(=O)N[C@H](C)c1ccccc1)[C@@H]2CO	26
Cc1ccc(S(=O)(=O)N(C)C[C@@H]2Oc3ccc(NC(=O)NC4CCCCC4)cc3C(=O)N([C@H](C)CO)C[C@H]2C)cc1	-8
CCC(=O)N1C[C@@H](C)[C@@H](OC)CN(C)C(=O)c2cc(NC(=O)C3CCCCC3)ccc2OC[C@@H]1C	-2
C[C@H](CO)N1C[C@H](C)[C@H](CN(C)C)Oc2ccc(NC(=O)Nc3ccc(F)cc3)cc2C1=O	-7
COc1ccc(C#Cc2ccc([C@@H]3[C@H]4CN(C(=O)Nc5ccccc5F)CCCCN4[C@H]3CO)cc2)cc1	-3
C[C@H]1CN([C@@H](C)CO)C(=O)Cc2cc(NC(=O)Nc3ccccc3)ccc2O[C@H]1CN(C)S(=O)(=O)c1ccc(Cl)cc1	23
C/C=C/c1ccc([C@@H]2[C@H](CO)N(C(=O)CC)[C@H]2CNC(=O)CC)cc1	0
COc1ccc(S(=O)(=O)Nc2ccc3c(c2)C(=O)N([C@H](C)CO)C[C@@H](C)[C@H](CN(C)C(=O)Nc2cccc4ccccc24)O3)cc1	22
O=C(c1ccccn1)N1C[C@H]2[C@@H](c3ccccc31)[C@H](CO)N2C(=O)Nc1ccccc1Cl	72
CCC(=O)Nc1ccc2c(c1)OC[C@@H](C)N(Cc1ccccn1)C[C@H](C)[C@@H](OC)CN(C)C2=O	-17
Cc1ccccc1-c1ccc([C@H]2[C@H](CO)N3CCCCN(C(=O)c4cccnc4)C[C@@H]23)cc1	-15
COc1cccc(S(=O)(=O)N2C[C@@H](O)COC[C@H]3O[C@H](CC(=O)N4CCCCC4)CC[C@@H]32)c1	0
CO[C@H]1CN(C)C(=O)c2cc(NC(=O)c3cccc(F)c3)ccc2OC[C@@H](C)N(CC2CC2)C[C@H]1C	1
COc1ccc(C#Cc2ccc3c(c2)[C@@H]2[C@@H](CCN2C(C)=O)[C@@H](CO)N3)cc1	-5
O=C(NC1CCCC1)N1CCCCN2[C@H](CO)[C@H](c3ccc(-c4ccncc4)cc3)[C@H]2C1	13
COc1cccc(CN2CCCCN3[C@H](CO)[C@H](c4ccc(-c5cccc(C#N)c5)cc4)[C@@H]3C2)c1	14
CCCN1C[C@H](C)[C@@H](OC)CN(C)C(=O)c2ccc(NC(=O)c3ccccc3)cc2OC[C@H]1C	-5
C[C@H]1CN([C@@H](C)CO)C(=O)c2cccc(NC(=O)c3ccncc3)c2O[C@@H]1CN(C)C(=O)Nc1ccccc1	-8
CC(C)NC(=O)N(C)C[C@H]1Oc2c(NC(=O)Nc3ccccc3)cccc2C(=O)N([C@H](C)CO)C[C@H]1C	0
O=S(=O)(c1ccccc1)N1C[C@H]2[C@@H](c3ccccc31)[C@H](CO)N2Cc1ccc(F)cc1	5
Cc1noc(C)c1S(=O)(=O)Nc1ccc2c(c1)C(=O)N([C@@H](C)CO)C[C@@H](C)[C@@H](CN(C)C(=O)Nc1ccc3c(c1)OCO3)O2	8
C[C@@H]1CN([C@@H](C)CO)C(=O)c2cccc(NC(=O)Nc3ccccc3)c2O[C@@H]1CN(C)S(=O)(=O)c1ccc(F)cc1	-2
O=C(Nc1ccc(F)cc1)N1C[C@H]2[C@@H](c3ccccc31)[C@@H](CO)N2C(=O)c1ccccn1	39
C[C@@H]1CN([C@H](C)CO)C(=O)c2cccc(NC(=O)c3ccc(-c4nccs4)cc3)c2O[C@H]1CN(C)C(=O)Nc1ccc(C(F)(F)F)cc1	4
CCC(=O)Nc1ccc2c(c1)C(=O)N(C)C[C@@H](OC)[C@@H](C)CN(Cc1ccccc1C(=O)O)[C@H](C)CO2	-13
C[C@@H]1CN([C@H](C)CO)C(=O)Cc2cc(NC(=O)Nc3ccc(F)cc3)ccc2O[C@H]1CN(C)C	11
CCCN1[C@H](C(=O)OC)[C@@H](CO)[C@@H]2Cn3c(ccc(C4=CCCCC4)c3=O)[C@@H]21	-9

Some of these compounds in order of their number in Yeast UUG start, high to low:
SMILES	Yeast UUG start
C[C@@H]1CN([C@H](C)CO)C(=O)Cc2cc(NC(=O)Nc3ccc(F)cc3)ccc2O[C@H]1CN(C)C	11
O=S(=O)(c1ccccc1)N1C[C@H]2[C@@H](c3ccccc31)[C@H](CO)N2Cc1ccc(F)cc1	5
CC(C)NC(=O)N(C)C[C@H]1Oc2c(NC(=O)Nc3ccccc3)cccc2C(=O)N([C@H](C)CO)C[C@H]1C	0
COc1ccc(C#Cc2ccc3c(c2)[C@@H]2[C@@H](CCN2C(C)=O)[C@@H](CO)N3)cc1	-5
Cc1ccccc1-c1ccc([C@H]2[C@H](CO)N3CCCCN(C(=O)c4cccnc4)C[C@@H]23)cc1	-15

Later entries.
SMILES	Yeast UUG start
CN1c2ccc(-c3ccc(C#N)cc3)cc2[C@@H]2[C@@H](CCN2C(=O)c2cccc(F)c2)[C@H]1CO	-9
O=C(C[C@H]1CC[C@@H]2[C@H](COC[C@@H](O)CN2S(=O)(=O)c2ccccc2)O1)NCC1CCCCC1	6
O=C(Nc1cccc(Cl)c1)N1C[C@@H]2[C@H](c3ccccc31)[C@H](CO)N2C(=O)C1CCCC1	20
CC(C)[C@H](C)NC(=O)N(C)C[C@H]1OCc2ccccc2-c2c(n(C)c3ccccc23)C(=O)N([C@@H](C)CO)C[C@H]1C	6
N#Cc1cccc(-c2ccc3c(c2)[C@H]2[C@H](CCN2C(=O)C2CCCCC2)[C@H](CO)N3)c1	0
C[C@@H]1CN([C@@H](C)CO)C(=O)c2cc(C#CC3CCCCC3)cnc2O[C@H]1CN(C)C(=O)C1CCCCC1	8
